Compound activity as filed in PubChem.
ClpP mod = qHTS Assay for Activators of ClpP; ATP-dependent Clp protease proteolytic subunit (Bacillus subtilis (strain 168)), P80244; purified B. subtilis ClpP, FRET peptide cleavage, 20 min; Potency, µM (series often up to 57.5 µM), inactives show top-dose activity change, negative = active; 340,000 tested, 1.9% active; AID 651965, 2013; active = well fitted falling curve with a large enough effect; inconclusive = small, poorly fitted or top-dose-only effect; inactive = no such curve, though single readings can be large or run the other way; also: potency is read from the fitted curve at half-maximal effect; the source files actives as falling curves though it sought activators and does not explain the sign; nearly all actives have a fitted effect of over 65% in size; many hits overshoot -100%
Target sequence (P80244 whole entry, looked up): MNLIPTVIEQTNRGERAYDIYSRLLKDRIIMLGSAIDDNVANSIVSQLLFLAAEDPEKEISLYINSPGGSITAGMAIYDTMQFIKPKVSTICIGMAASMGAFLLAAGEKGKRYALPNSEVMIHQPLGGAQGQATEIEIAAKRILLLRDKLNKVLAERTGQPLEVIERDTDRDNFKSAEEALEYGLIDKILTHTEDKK
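ClpP 10 microg/mL final, pH 8 Tris/KCl buffer with BSA, glycerol, Tween-20; compound pinned in; FRET-FV substrate; RT 20 min; Ex320/Em430; ΔFRET vs ADEP 5.8 microM, DMSO, no enzyme.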
gsp antagonist = gsp mutant antagonism | gsp-mutant cells, cAMP HTRF, 30 min; control for the full effect not named in the record | Potency, µM (top dose mostly 76.9 µM), for the others: at the top dose activity change, negative = inhibition, hits mostly inhibitors | 340,000 tested, 0.4% active | AID 624288; active = falling curve of any shape with a large fitted effect; inconclusive = falling curve, mostly with a smaller effect; inactive = flat or rising curve; cell line not stated here;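 also: intracellular cAMP measured with PDE inhibitor Ro 20-1724 present during compound exposure; potency is read from the fitted curve at half-maximal effect; % is scaled to controls: 0 for no effect and ±100 for the full control effect; nearly all actives have a fitted effect of over 65% in size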
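HTRF cAMP read-out (cAMP-d2 plus anti-cAMP antibody-K in lysis buffer, 30 min RT). Before lysis, cells are exposed to compounds with […] for 30 min at 37C in DPBS containing Ca/Mg, BSA and Tween 20.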
Menin MLL FP FL = menin-MLL binding inhibition, fluorescein peptide; FP activity change, % at 61.4 µM; AID 1766; Fluorescence polarization, fluorescein-MLL peptide displacement from menin; 290,000 tested, under 10 active; inconclusive = falling polarisation curve, or a change in total fluorescence; inactive = total fluorescence flat and polarisation flat or rising; no compound was filed as active; the % refers to the polarisation; negative = inhibition;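 also: % of control where 0% means no effect; inhibitors lower the polarisation; unlabelled MLL peptide was the positive control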
TRPV1 PAM = enhances activation of the human vanilloid receptor TRPV1; Q8NER1; TRPV1-expressing cells, Fluo-8 calcium influx, capsaicin EC20 potentiation; host cell line not named in the record; control for the full effect not named in the record; potentiation, % at 8.33 µM; 320,000 tested, 0.02% active; AID 540277; active means potentiation above 80%; inconclusive means 30% to 80%; inactive means below 30%; also: 0% is about no effect
Target sequence (Q8NER1 whole entry, looked up): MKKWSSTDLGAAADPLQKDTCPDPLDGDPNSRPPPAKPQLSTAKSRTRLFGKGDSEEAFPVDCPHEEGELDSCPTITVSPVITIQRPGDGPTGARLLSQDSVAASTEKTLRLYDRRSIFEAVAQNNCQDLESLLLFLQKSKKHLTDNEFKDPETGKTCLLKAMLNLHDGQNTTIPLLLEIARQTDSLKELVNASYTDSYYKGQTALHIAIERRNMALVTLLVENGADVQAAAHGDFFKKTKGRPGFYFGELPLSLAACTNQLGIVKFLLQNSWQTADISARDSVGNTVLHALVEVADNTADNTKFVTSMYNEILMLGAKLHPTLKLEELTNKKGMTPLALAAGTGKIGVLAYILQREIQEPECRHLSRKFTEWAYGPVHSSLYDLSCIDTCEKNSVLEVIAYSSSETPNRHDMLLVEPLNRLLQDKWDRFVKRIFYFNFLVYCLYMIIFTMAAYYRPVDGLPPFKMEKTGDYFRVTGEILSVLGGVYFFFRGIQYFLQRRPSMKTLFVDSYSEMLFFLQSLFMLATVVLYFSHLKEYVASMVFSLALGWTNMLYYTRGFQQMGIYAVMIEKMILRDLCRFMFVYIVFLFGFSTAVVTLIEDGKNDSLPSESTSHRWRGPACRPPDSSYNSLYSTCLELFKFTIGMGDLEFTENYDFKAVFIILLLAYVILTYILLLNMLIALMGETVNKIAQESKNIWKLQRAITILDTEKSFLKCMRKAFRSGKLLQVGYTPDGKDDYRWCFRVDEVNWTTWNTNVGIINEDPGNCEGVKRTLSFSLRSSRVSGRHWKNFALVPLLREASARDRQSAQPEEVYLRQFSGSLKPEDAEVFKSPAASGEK
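Cells expressing TRPV1 were dye-loaded with Fluo-8 and read kinetically: 10 s baseline, 3 min after compound (agonist portion), then 2 min after EC20 capsaicin (allosteric enhancer portion). Calcium-bound dye fluorescence at 480/520 nm.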
Sfp PPTase inh = inhibitors of Bacillus subtilis Sfp phosphopantetheinyl transferase. Biochemical Sfp PPTase activity, qHTS. Potency, µM, without a hit: max response, negative = inhibition, actives largely listed as inhibitors. 310,000 tested, 3.5% active. AID 1490; active = well fitted inhibition curve with a large enough effect; inconclusive = small, poorly fitted or top-dose-only effect, or another doubt; inactive = no such curve, though single readings can be large or run the other way;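 also: the enzyme is Sfp with the accession as filed and its product quenches rhodamine fluorescence; potency is read from the fitted curve at half-maximal effect; 0% = enzyme reaction without inhibitor and -100% = no enzyme wells; top concentration of the series not given in the record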
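Fluorescence-quenching assay with 15 nM Sfp, 5 uM rhodamine-CoA and 12.5 uM BHQ-2-labelled ybbR peptide in pH 7.6 Hepes/MgCl2 buffer. Enzyme was pre-incubated with compound for 15 min at room temperature. Rate was taken from the 30-min fluorescence change (525/598 nm).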
CtBP-E1A inh = inhibitors of CtBP/E1A interaction. AlphaScreen GST-E1A/His-CtBP binding, 1536-well; hits give low values; control for the full effect not named in the record. activity change, % (test concentration not listed). 340,000 tested, 0.49% active; in the data active means activity change below about -65%; inconclusive means about -30% to -65%; inactive means above about -30%; also: % is scaled to controls: 0 for no effect and ±100 for the full control effect; compound concentration not given in the record
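AlphaScreen with 125 nM GST-E1A and 125 nM His-CtBP (5X stocks) in Tris pH 8.0, 300 mM NaCl, BSA, Tween 20, TCEP. Compounds preincubated 2 h at 37 deg C, then glutathione donor/nickel acceptor beads added for 1 h at 37 deg C in dark.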
gsp agonist = agonists of gsp mutant (McCune-Albright syndrome) | gsp mutant cells, cAMP HTRF, 30 min; control for the full effect not named in the record | Potency, µM (doses to about 76.9 µM), without a hit: at the top dose activation (cAMP increase), usual class: activators | 340,000 tested, 0.13% active | AID 624287; active = well fitted activation curve with a large enough effect; inconclusive = small, poorly fitted or top-dose-only effect, or another doubt; inactive = no such curve, though single readings can be large or run the other way; cell line not stated here;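 also: phosphodiesterase inhibitor Ro 20-1724 added with compounds to block cAMP breakdown; potency is read from the fitted curve at half-maximal effect; nearly all actives have a fitted effect of over 60% in size; about a fifth of the inactives were tested at one dose only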
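Cells in DMEM/10% FBS with G418 were pretreated with compounds in DMSO plus […] (300 uM stock) for 30 min at 37C. cAMP was measured by HTRF (cAMP-d2 plus anti-cAMP antibody-K) after 30 min at room temperature.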
An asterisk follows results filed as active; ? = inconclusive; · = no result given; & = joins results of further samples; [ ] = remark or other dose.

SMILES	ClpP mod	gsp antagonist	Menin MLL FP FL	TRPV1 PAM	Sfp PPTase inh	CtBP-E1A inh	gsp agonist
CN(C)c1ccc(N=Nc2ccccc2C(=O)OCC(=O)N2CCCC2)cc1	-2.3%	-35%	5.1	6	-8%	-30	-44%[inhibitor]
O=c1cc(-c2ccc(C3CCCCC3)cc2)[nH][nH]1	·	-4%	-2.0	-4	0%	0	7%[15.4 µM]
COc1ccc2[nH]cc(CCNC(=O)c3ccco3)c2c1	-1.6%	-12%	·	-1	·	-2	·
CC1=NN(c2ccccc2)C(=O)/C1=C/C=C/C=C/N(C)C	·	?	?	2	?	-25	-13%[15.4 µM]
CC(OC(=O)c1nsc(Cl)c1Cl)C(=O)NCCc1ccccc1 (stereo not given)	0.1%	-23%	·	-6	3%	23	27%[15.4 µM]
CC(=O)c1cccc(NC(=O)COC(=O)c2ccccc2C)c1	·	·	2.4	6	-14%	-5	11%[15.4 µM]
C=CCC(O)(CC=C)CNC(=O)C1CCC(=O)N(CCCc2ccccc2)C1 (stereo not given)	·	1%	1.0	-10	-2%	0	-27%
CCOc1ccc(-n2c(C)nc3cc(C(=O)NCc4ccco4)ccc32)cc1	1.6%	-14%	-0.3	-7	-4%	14	-1%
COc1ccc(CCNc2nc(C)cc(C)c2C#N)cc1OC	-14%	-3%	10	-15	-2%	1	?
Cc1cc(C)c(NC(=O)CN(C)C(C)C(=O)N2CCc3ccccc32)c(C)c1 (stereo not given)	-1.2%	-4%	·	-6	·	0	23%
COCCn1c(C(C)C)nc2sc3ccccc3c(=O)c2c1=O	0.5%	6%	4.9	4	10%	-1	9%
CCCCOCC(O)Cn1c(C)nc2ccccc21 (stereo not given)	-0.5%	1%	3.0	1	?	7	0%
C#CCOCCOCCOCCNc1nc(N2CCN(C(=O)CCCCCCCCCCNC(=O)[C@H]([C@@H](C)CC)n3cc(CCCCN=C(N)N)nn3)CC2)nc(N2CCN(C(=O)CCCCCCCCCCNC(=O)[C@H](CCCCN)n3cc(C)nn3)CC2)n1	-2.7%	?	·	-41	·	-12	·
CCSc1nnc(-c2ccc(Cl)cc2)c2ccccc12	-0.4%	1%	3.4	-12	6%	4	0%
C[C@H]1CN([C@@H](C)CO)S(=O)(=O)c2ccc(Br)cc2O[C@@H]1CN(C)C(=O)Cc1ccccc1	0.1%	·	·	·	·	4	2%
COc1ccc(C2CC(c3ccc(C)cc3)Nc3ncnn32)cc1 (stereo not given)	-0.9%	-4%	0.4	1	17%	0	10%
CC(=O)NC(c1ccc(F)cc1)c1cccnc1 (stereo not given)	1.1%	8%	0.0	26	19%	0	12%
COc1ccc(Br)cc1CN(C)CC(=O)Nc1cc([N+](=O)[O-])ccc1OC	1.0%	?	4.7	-2	1%	-2	-5%[15.4 µM]
CCCC1=NN2C(=N)/C(=C\c3ccc(OCCOc4ccc(NC(C)=O)cc4)c(OC)c3)C(=O)N=C2S1	-6.8%	-3%	24	-10	-15%	-17	-12%[15.4 µM]
COc1ccccc1CCC(=O)N(C)CC(=O)Nc1ccc(Cl)c(C(F)(F)F)c1	-1.0%	-13%	·	10	4%	-28	20%
CS(=O)(=O)c1ccc(C(=O)Nc2ccc(-c3nc4ccccc4[nH]3)cc2)cc1	?	10%	-3.9	6	12%	-1	14%
Cc1cc(C)cc(N(CC(=O)NCc2ccccc2)C(=O)CCC(=O)Nc2ccccn2)c1	·	-19%	-0.5	-13	8%	-1	-7%[15.4 µM]
O=C(NNC1=C(C(=O)C(F)(F)F)CCC1)c1ccccc1Cl	28µM*	6%	3.2	-13	13%	-4	11%
COC(=O)Cc1c(O)ccn(Cc2cccc(C(F)(F)F)c2)c1=O	0.1%	10%	-2.1	2	9%	3	-16%[15.4 µM]

Quoted at random: 2 compounds from above
SMILES	ClpP mod	gsp antagonist	Menin MLL FP FL	TRPV1 PAM	Sfp PPTase inh	CtBP-E1A inh	gsp agonist
CS(=O)(=O)c1ccc(C(=O)Nc2ccc(-c3nc4ccccc4[nH]3)cc2)cc1	?	10%	-3.9	6	12%	-1	14%
O=C(NNC1=C(C(=O)C(F)(F)F)CCC1)c1ccccc1Cl	28µM*	6%	3.2	-13	13%	-4	11%

The results go on:
SMILES	ClpP mod	gsp antagonist	Menin MLL FP FL	TRPV1 PAM	Sfp PPTase inh	CtBP-E1A inh	gsp agonist
CCCn1c(SCC(=O)Nc2ccccc2OC)nnc1-c1ccco1	·	-11%	1.4	2	4%	0	3%[15.4 µM]
Cc1cc(S(=O)(=O)N(Cc2ccccn2)Cc2ccco2)ccc1-n1cnnn1	-1.9%	-12%	-0.2	-18	7%	-3	-44%[inhibitor]
CCOC(=O)c1c(C)c(-c2ccccc2)n(CC(=O)N2CCN(C)CC2)c1C	-2.2%	3%	-4.1	11	-3%	1	25%
Cc1ccccc1Cn1c(=O)n(-c2ccccc2)c(=O)c2ccc(C(=O)NCc3ccco3)cc21	·	·	0.1	-19	-10%	·	·
COC(=O)c1ccc(NC(=O)C2CC(=O)N(c3ccc(C)cc3)C2)cc1 (stereo not given)	0.1%	18%	-2.2	19	6%	2	-10%
COCC(=O)N(Cc1cc2cc(OC)ccc2[nH]c1=O)c1ccc(C)cc1	25µM*	4%[15.4 µM]	0.1	-5	5%	-5	?
Cc1cc(S(=O)(=O)NC2CCCC2)ccc1F	-1.7%	0%	0.0	-3	-8%	0	12%
CN1C(=O)C(CC(=O)N2CCN(C(c3ccccc3)c3ccccc3)CC2)N(C)C1=O (stereo not given)	-3.1%	13%	2.6	-35	-22%	5	-47%[inhibitor]
COc1ccc(C(=O)N2CCN(C)C(C)C2)cc1OC1CCN(C(C)=O)CC1 (stereo not given)	0.5%	3%	·	-14	2%	-4	0%
COc1ccc(CNC(=S)Nc2ccccc2-c2ccccc2)cc1	·	·	-4.2	-10	-14%	·	·
COc1cccc(N2CC(C(=O)NNC(=O)c3ccc(Cl)cc3)CC2=O)c1 (stereo not given)	-1.6%	3%	-1.9	4	-1%	-2	0%[15.4 µM]
COc1ccc(-c2[nH]ncc2CN(C)C(C)c2ccon2)c(OC)c1 (stereo not given)	-0.9%	11%	3.9	2	7%	3	-34%
O=C(Nc1cc(Cl)ccc1Cl)P(=O)(O)c1ccccc1	·	10%	·	·	·	4	17%
C/C(CCc1ccc2c(c1)OCO2)=N\NC(=O)c1ccc(C)cc1C	·	9%	-0.8	0	12%	2	1%[15.4 µM]
Cc1nc2ncccn2c1-c1csc(Nc2ccc(S(N)(=O)=O)cc2)n1	-9.5%	-5%	-4.5	7	-20%	·	-25%
O=C(Cn1c(=O)c2c(ncn2C2CCCC2)n(Cc2ccccc2)c1=O)N1CCc2ccccc21	-0.2%	11%	3.1	-11	-9%	-9	0%
Cc1cccc(NC(=O)CCN2C(=O)c3ccccc3S2(=O)=O)c1C	0.4%	10%	-7.3	8	12%	7	-25%
O=C(COC(=O)CCCC1=NS(=O)(=O)c2ccccc2N1)Nc1ccc(Br)cc1	-1.9%&0.3%	0%	·	10	2%	-17	8%
CC(C)C(=O)NC(=S)Nc1ccccc1F	0.8%	7%	3.1	3	5%	-1	16%
CN1C(C(=O)Nc2cccc(O)c2)=CC(c2ccco2)=NS1(=O)=O	3.1%&-2.5%	-2%	4.7	?	9%	1	-33%[inhibitor]
COC(=O)CN(c1cccc(F)c1)S(C)(=O)=O	3.5%	1%	1.0	-1	15%	5	-35%[inhibitor]
COc1ccc2[nH]c(=O)c(CN(C(=O)c3cccnc3)c3ccc(C)cc3)cc2c1	?	-3%	?	12	6%	1	-67%[inhibitor]
CCOC(=O)c1c(C)[nH]c(C(=O)CSc2nnc(-c3cccs3)n2Cc2ccccc2)c1C	-0.1%	-6%	5.1	16	14%	1	6%
CCOCCn1[nH]c2ccccc2c1=O	?	5%	·	1	·	-7	36%

Arranged by formula weight (falling): part of the list above.
SMILES	ClpP mod	gsp antagonist	Menin MLL FP FL	TRPV1 PAM	Sfp PPTase inh	CtBP-E1A inh	gsp agonist
O=C(COC(=O)CCCC1=NS(=O)(=O)c2ccccc2N1)Nc1ccc(Br)cc1	-1.9%&0.3%	0%	·	10	2%	-17	8%
Cc1cccc(NC(=O)CCN2C(=O)c3ccccc3S2(=O)=O)c1C	0.4%	10%	-7.3	8	12%	7	-25%
C/C(CCc1ccc2c(c1)OCO2)=N\NC(=O)c1ccc(C)cc1C	·	9%	-0.8	0	12%	2	1%[15.4 µM]
O=C(Nc1cc(Cl)ccc1Cl)P(=O)(O)c1ccccc1	·	10%	·	·	·	4	17%

Next section.
SMILES	ClpP mod	gsp antagonist	Menin MLL FP FL	TRPV1 PAM	Sfp PPTase inh	CtBP-E1A inh	gsp agonist
N#C/C(=C\c1c(N2CCN(c3ccccc3)CC2)nc2ccccn2c1=O)S(=O)(=O)c1ccccc1	-0.2%	13%	-3.8	-11	3%	6	28%
CCn1ccc(C(=O)NC2CCCC2)n1	-0.6%	8%	·	0	9%	2	1%
CCn1nc(C)c(/C=N/NC(=S)Nc2ccc(Cl)cc2Cl)c1C	0.5%	-31%	-0.3	2	0%	0	13%
CC(C)OP(=O)(OC(C)C)C1(O)C(=O)Nc2ccc(Br)cc21 (stereo not given)	-2.5%	4%	0.2	-6	-10%	-1	-19%
COc1ccc(CN(N=O)C2CC(=O)N(c3ccc(OC)cc3)C2=O)cc1 (stereo not given)	-1.8%	6%	2.3	-15	5%	-21	1%[15.4 µM]
Cc1ccc(CNC(=O)CC(C)S(=O)(=O)c2ccc3c(c2)NC(=O)CO3)cc1 (stereo not given)	-0.4%	5%	·	21	10%	5	6%
Cc1ccc(S(=O)(=O)N2CCOCC2)cc1C(=O)N1CCN(c2ccc(C(F)(F)F)cn2)CC1	·	-3%	·	·	·	0	7%
C/C=C(\C)CN1CCC(n2nccc2NC(=O)CCc2ccccc2)CC1	-1.2%	9%	·	-1	11%	-10	18%
CCN(CC)c1ccc(NS(=O)(=O)c2cn(C)c(=O)n(C)c2=O)c(C)c1	0.5%	-4%	-1.2	-25	-11%	-1	4%
